Screening results as filed in PubChem.
Resorufin fluor: compounds fluorescent in resorufin spectral region | max dye-equivalent concentration, M | 0.04% of 59,000 active | AID 588 | Compound fluorescence, resorufin region 547/598 nm, buffer; hits give high values; active = above 10 nM dye equivalent; inconclusive = 1 to 10 nM; inactive = 1 nM or less; a few of its hits are not listed in these tables; also: highest value over a series up to 38 µM
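Intrinsic fluorescence profiled in the resorufin window (ex 547 nm, em 598 nm) after 15 min at room temperature in pH 8.0 Tris buffer (100 mM); responses normalized against a six-point resorufin standard series as dye-equivalent concentration.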
A647 autofl: compound fluoresces in the A647 spectral region; Compound fluorescence, A647 channel (570/671 nm), Tris buffer; max dye-equivalent concentration, M; 59,000 tested, under 10 active; active means above 1 µM dye equivalent; inconclusive means 0.1 to 1 µM; inactive means 0.1 µM or less;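 also: values scaled relative to a standard on each plate; highest value over a series up to 38 µM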
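Buffer was dispensed, compounds and Alexa 647 standards were pin-transferred, and plates sat 15 min at room temperature. Intensity at 570/671 nm was then converted to dye-equivalent concentration using the plate's A647 standard curve.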
TSHR agonist: agonists of human thyroid stimulating hormone receptor | Potency, µM (doses to about 57.1 µM), for the others: top-dose activation, actives largely listed as activators | 0.48% of 73,000 active | HEK293-CNG-TSHR cells (CNG channel as cAMP sensor), membrane potential dye, cAMP; active = well fitted activation curve of enough size with the parental cells flat; inconclusive = any curve in the parental cells; inactive = parental cells flat and receptor cells flat or falling; also: potency is read from the fitted curve at half-maximal effect; % of control where 0% means no effect; weak receptor curves with flat parental cells got no call and are not listed
Target sequence (P16473 whole entry, looked up): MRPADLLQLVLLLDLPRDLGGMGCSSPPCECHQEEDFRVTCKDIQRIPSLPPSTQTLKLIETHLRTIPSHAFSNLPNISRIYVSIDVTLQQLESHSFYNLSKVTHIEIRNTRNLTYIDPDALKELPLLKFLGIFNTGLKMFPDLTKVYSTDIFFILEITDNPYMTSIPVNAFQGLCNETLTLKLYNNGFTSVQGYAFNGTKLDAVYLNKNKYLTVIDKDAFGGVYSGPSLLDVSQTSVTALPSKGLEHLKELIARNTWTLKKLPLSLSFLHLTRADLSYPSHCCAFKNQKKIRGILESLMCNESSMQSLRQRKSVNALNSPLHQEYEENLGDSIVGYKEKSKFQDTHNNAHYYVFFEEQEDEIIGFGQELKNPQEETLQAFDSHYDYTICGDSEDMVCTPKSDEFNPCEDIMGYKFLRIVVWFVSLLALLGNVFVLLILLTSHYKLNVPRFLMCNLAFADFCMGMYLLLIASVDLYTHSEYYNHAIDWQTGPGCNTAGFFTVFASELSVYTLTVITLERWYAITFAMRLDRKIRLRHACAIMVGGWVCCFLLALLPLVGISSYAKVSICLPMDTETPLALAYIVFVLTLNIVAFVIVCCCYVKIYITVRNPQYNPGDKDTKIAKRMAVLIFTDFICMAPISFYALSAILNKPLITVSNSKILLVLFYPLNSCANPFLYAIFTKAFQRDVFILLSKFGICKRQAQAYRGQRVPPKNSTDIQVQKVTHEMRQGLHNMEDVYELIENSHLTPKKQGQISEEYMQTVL
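HEK 293 cells stably expressing TSHR and a cAMP-gated CNG channel; parental CNG-only cells as counterscreen. Cells preloaded 60 min with membrane potential dye plus 100 uM RO 20-1724, then compound 30 min; fluorescence read at 590 nm.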
A488 autofl: compound fluoresces in the A488 spectral region; compound autofluorescence, A488 spectral region, dye equivalency; hits give high values; max dye equivalency, M; 0.1% of 59,000 active; active = above 10 nM dye equivalent; inconclusive = 1 to 10 nM; inactive = 1 nM or less; about half of its hits are not listed in these tables;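 also: highest value over a series up to 38 µM; compound alone in buffer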
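Compound autofluorescence was read in 100 mM Tris pH 8.0 after 15 min at room temperature, ex 480 nm/em 540 nm. Intensities were converted to A488 dye-equivalent concentration using an on-plate six-point A488 standard curve.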
AID923: qHTS Assay for Allosteric/Competitive Inhibitors of Caspase-1: Spectroscopic Profiling in AFC Spectral Region; compound fluorescence, AFC spectral region (405/520 nm); almost no hit is shown here; Potency, µM (series often up to 57.5 µM), without a hit: at the top dose fluorescence increase, most hits filed as activators; 1.1% of 75,000 active; active = well fitted activation curve with a large enough effect; inconclusive = small, poorly fitted or top-dose-only effect;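 also: potency is read from the fitted curve at half-maximal effect; 0% is about no effect; scaled to a free AFC standard on each plate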
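Titrations up to 57 uM read every 20 sec for 3 min (405/520 nm) with 50 nM caspase 1 and 5 uM Ac-WEHD-AFC, pH 7.5 HEPES buffer. Fluorescence-vs-time intercept gave baseline, scaled against on-plate AFC standard.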
* hit, by the source's call; i = inactive; u = inconclusive; x = not tested or not shown; & = joins results of further samples; [ ] = remark or other dose. These rows are one share of the data, so the mix of outcomes need not match the whole.

SMILES | Resorufin fluor | A647 autofl | TSHR agonist | A488 autofl | AID923
CCN(CC)c1ccc(CNc2ccc(Br)cn2)cc1 | i | 1e-09 | -4% | i | -1.9%
O=C(O)C1CCCN1S(=O)(=O)c1ccc2ccccc2c1 (centres undefined) | i | 5.2e-08 | 7% | i | 0.9%
Cc1onc(-c2ccccc2)c1C(=O)N1CCN(CCc2ccccc2)CC1 | i | 5.8e-09 | -2% | i | -3.0%
CC(C)C(NC(=O)C1CCCCC1)C(=O)Nc1ccccn1 (centres undefined) | i | 2.5e-08 | -2% | i | -0.9%
O=S(=O)(NCCO)c1cccc2cccnc12 | x | x | -1% | x | 1.1%
COCc1cc(C)n(CC(=O)Nc2ccccc2C(=O)OC)c(=O)c1C#N | i | 3e-08 | 2% | i | 0.5%
CCN(CCCNC(=O)COc1cc(=O)n(C)c2ccccc12)c1cccc(C)c1 | i | 1e-09 | 12%[11.4 µM] | i | -0.8%
CCCN(CCC)S(=O)(=O)c1cccc(C(=O)Nc2ccc3c(c2)OCO3)c1 | i | 3.8e-09 | u | i | 1.9%
O=C(CSc1ncnc2c1nnn2-c1ccc(F)cc1)N1CCN(c2ccccc2)CC1 | x | x | 25% | x | 0.4%
C=CCN1C(=O)C2(C(C(=O)c3ccc(C)o3)=C(O)C(=O)N2CCCN2CCOCC2)c2ccccc21 (centres undefined) | i | 1e-09 | x | i | -0.8%
N/C(CCN1CCOCC1)=N/O | i | 5.9e-08 | x | i | x
Cc1ccc(CN(C(=O)Cn2nnc3ccccc32)C(C(=O)NCc2ccco2)c2cccs2)cc1 (centres undefined) | i | 8.4e-09 | u | i | -0.4%

The last 2 entries of the section above are carried over, then new ones follow.
SMILES | Resorufin fluor | A647 autofl | TSHR agonist | A488 autofl | AID923
N/C(CCN1CCOCC1)=N/O | i | 5.9e-08 | x | i | x
Cc1ccc(CN(C(=O)Cn2nnc3ccccc32)C(C(=O)NCc2ccco2)c2cccs2)cc1 (centres undefined) | i | 8.4e-09 | u | i | -0.4%
Cc1nc2cnc(Nc3ccccc3)nc2n(CCC#N)c1=O | i | 6.6e-09 | u | i | 18%
Cc1cc(C(=O)NC(C)c2ccc3c(c2)OCO3)cs1 (centres undefined) | i | 1e-09 | -11% | i | 3.5%
CC1CCC(NC(=O)C2CCN(C(=O)NC3CCCCC3)CC2)CC1 (centres undefined) | i | 1.7e-08 | 13% | i | 2.0%
O=C(NC1CCCC1)c1ccc(COCC(F)(F)C(F)F)o1 | i | 8.5e-09 | 6% | i | 0.3%
CN(C)CCCN1c2ccc(O)cc2Sc2ccc(Cl)cc21 | i | 1.4e-09 | 1%[11.4 µM] | i | -0.2%[11.5 µM]
CC(=O)C1=C(O)C(=O)N(c2nnn(C)n2)C1c1cccs1 (centres undefined) | x | x | u | x | 0.7%
COc1ccc(-c2noc(C3CCCN(S(=O)(=O)c4cccc(Cl)c4)C3)n2)cc1OC (centres undefined) | i | 6.5e-09 | x | i | -1.9%
COC(=O)C1=C(C)N(c2cccc(Cl)c2)C(=O)C1 | i | 5.2e-09 | -4% | i | 0.9%
O=S(=O)(c1cnc[nH]1)N1CCc2ccccc21 | u | 2e-09 | 5% | i | 0.2%
CC1CCCC(N2C(=O)NC(NC(=O)c3ccco3)(C(F)(F)F)C2=O)C1C (centres undefined) | i | 2.9e-08 | -15% | i | 0.6%
CCOCCOC(=O)C1=C(C)N(C)C(=O)NC1c1ccccc1Cl (centres undefined) | x | x | 21% | x | 0.7%
COc1ccc(COC(=O)N/N=C2/C[C@@H](O)[C@@H](O)[C@@H]3[C@@H]4C(=O)N(Cc5ccc6c(c5)OCO6)C(=O)[C@H]4CC[C@@H]23)cc1 | x | x | -1%[11.4 µM] | x | -1.6%[11.5 µM]
O=C(COC(=O)c1ccco1)Nc1ccc(Br)cc1 | i | 4.9e-09 | -11% | i | -2.9%
O=c1oc(-c2ccccc2)nc2c1cnn2-c1ccccc1 | i | 3e-08 | 16% | i | 0.2%
COc1ccc(OC)c(NC(=O)NCc2ccc(F)cc2)c1 | i | 1e-09 | 4% | i | -0.9%
CCCCOc1ccc(C(=O)N2CCCC2C(=O)O)cc1 (centres undefined) | i | 7e-08 | x | i | x
NC(=O)c1ccccc1NC(=O)CCc1ccccc1 | x | x | 8%[11.4 µM] | x | 0.9%
CCn1c(N)nc2ccccc21 | i | 1e-09 | 0% | i | 2.0%
COc1ccc(OC)c(Nc2nc(N)nc(-c3cc4ccccc4o3)n2)c1 | i | 4.2e-09 | -21% | i | -0.3%
CN1CCN(S(=O)(=O)c2ccc3ccccc3c2)CC1 | x | x | 1% | x | 0.2%
CC(=O)n1cc(-c2ccncc2)c2ccccc21 | x | x | 1% | x | 1.4%
COCCn1c(=O)c(C)nc2cnc(N3CCNCC3)nc21 | i | 9.1e-09 | -5% | i | 21%
CCCCN(C)C(=O)C1CCN(C/C(C)=C/c2ccccc2)CC1 | i | 2.1e-08 | u | i | 0.2%
CC(CCc1ccccc1)NC(=O)CSc1nnnn1C (centres undefined) | i | 2.9e-08 | -2% | i | -0.9%
CCN1CC=C2C(C#N)=C(N)C(C#N)(C#N)C(CCc3ccccc3)C2C1 (centres undefined) | i | 1e-09 | -17% | u | 20µM*
Cn1cccc1C(C(=O)NC1CCCCC1)N(C(=O)Cc1cccs1)C1CC1 (centres undefined) | i | 2.4e-08 | u | i | 2.6%
Cc1ccc(C(=O)c2cc(C)sc2NC(=O)CN2CCN(C(=O)c3ccco3)CC2)cc1 | i | 3.4e-08 | 5% | i | 0.0%
Cc1ccc(N(CC(N)=O)C2SC(=O)N(C)C2=O)cc1 (centres undefined) | i | 1e-09 | -3% | i | -1.8%
COc1ccc(-c2cc(C(=O)N3CCCc4ccccc43)no2)cc1 | i | 5.9e-09 | u | i | 0.2%
CCN(CC)C(=O)C1CCCN(Cc2ccc(OC)c(C)c2)C1 (centres undefined) | x | x | 18% | x | 1.3%
CCC1CCCCN1CCCNC(=O)C1CCC(=O)N1Cc1ccc(C)cc1 (centres undefined) | i | 1e-09 | 2% | i | -0.2%
CCCCS(=O)CC(COCc1ccccc1)OC(=O)CSc1nc(C)cc(C)n1 (centres undefined) | x | x | 7% | x | 1.0%
CC(=O)CSc1ncnc2nc[nH]c12 | i | 2.6e-08 | x | i | -1.4%
Cc1cc(NC(=O)c2ccc(COc3ccc(Cl)c(C)c3)o2)no1 | i | 1e-09 | u | i | 1.1%
CC1(C)CC(N(Cc2cccs2)C(=O)c2ccco2)CCO1 (centres undefined) | i | 3.8e-08 | x | i | 2.1%
O=C(c1ccccc1F)N1CCN(CC2CC3C=CC2C3)CC1 (centres undefined) | x | x | 9% | x | 2.0%
Cc1ccc(C)c(N(C(=O)Cn2nnc3ccccc32)C(C(=O)NCc2ccco2)c2ccncc2)c1 (centres undefined) | i | 9.1e-09 | 4% | i | 1.4%
COc1ccc(CCNC(=O)c2ccco2)cc1 | x | x | 6%[11.4 µM] | x | -0.6%
CCOC(=O)C1=C(CNC2CCCCC2)NC(=O)NC1c1cc(C)ccc1C (centres undefined) | i | 1.8e-08 | u | i | -1.6%
O=C1Nc2ccccc2C12OCC(COc1ccc(Cl)cc1)O2 (centres undefined) | i | 1e-09 | 11% | i | -0.3%
CC(C)CNS(=O)(=O)c1ccc(CCC(=O)NCC2CCCO2)cc1 (centres undefined) | i | 2.8e-08 | -6% | i | -0.6%
COCCCNc1nc2c(c(=O)[nH]c(=O)n2C)n1CC(O)COc1ccccc1C (centres undefined) | x | x | -8% | x | -2.8%
COc1ccc(O[C@H]2C=C[C@@H](c3ccccc3)O[C@H]2COC(=O)CC/C(C)=N\O[C@@H](C)c2cn([C@H](CO)Cc3ccccc3)nn2)cc1 | x | x | 12%&0%[11.4 µM] | x | 0.3%&0.0%[11.5 µM]
COC(=O)c1ccc(Oc2cc(C)nc(-n3nc(C)cc3C)n2)cc1 | i | 4e-08 | u | i | 0.6%
Cc1cccc(NCc2nc(-c3ccccc3)no2)c1 | x | x | -10% | x | -0.7%
Cc1ccc(C(C)C)n1C(=O)OC(C)(C)C | x | x | -2%[11.4 µM] | x | -1.5%[11.5 µM]
CCOC(=O)C1=C(C)NC(=O)NC1C1CC=CCC1 (centres undefined) | i | 7.8e-09 | -13% | i | 0.4%
Cn1cccc1Cc1nnc(SCC(=O)Nc2ccc(Cl)cc2)n1-c1ccc(F)cc1 | x | x | -5% | x | -0.2%

Single entries from the results shown:
`CCOC(=O)C1=C(C)NC(=O)NC1C1CC=CCC1` (centres undefined) @ TSHR agonist: -13%
`CCOC(=O)C1=C(CNC2CCCCC2)NC(=O)NC1c1cc(C)ccc1C` (centres undefined) @ AID923: -1.6%
`O=C1Nc2ccccc2C12OCC(COc1ccc(Cl)cc1)O2` (centres undefined) @ AID923: -0.3%
`Cc1ccc(C)c(N(C(=O)Cn2nnc3ccccc32)C(C(=O)NCc2ccco2)c2ccncc2)c1` (centres undefined) @ A647 autofl: 9.1e-09
`COc1ccc(CCNC(=O)c2ccco2)cc1` @ TSHR agonist: 6%[11.4 µM]

Continued:
SMILES | Resorufin fluor | A647 autofl | TSHR agonist | A488 autofl | AID923
COC(=O)[C@@H]1CCCN1C(=O)[C@H]1C[C@@H]1[C@H](NC(=O)OCc1ccccc1)c1ccccc1 | x | x | u | x | 1.1%
N=C(N)C(N=Nc1ccccc1)C(=N)N (centres undefined) | i | 1e-09 | -1%[11.4 µM] | i | 0.3%[11.5 µM]
C[C@@]12CCC(=O)C=C1CC[C@@H]1[C@@H]2[C@H](O)C[C@]2(C)[C@@H]1CC[C@]2(O)C(=O)COC(=O)CCC(=O)O | i | 3.4e-09 | u | i | -1.2%
Cn1c(=O)c2c(SCc3cccnc3)nc(C3CC3)nc2n(C)c1=O | x | x | 12% | x | -2.7%
CCOC(=O)C1CCCCN1Cc1ccc(OC)c(OC)c1OC (centres undefined) | i | 3.5e-08 | -1%[11.4 µM] | i | -2.4%
CCOC(=O)c1ccc(N2C(=O)c3n[nH]c(C)c3C2c2ccc(O)cc2)cc1 (centres undefined) | i | 4.4e-08 | 29% | i | -1.8%
O=C1CC(c2ccc3c(c2)OCO3)c2cc3c(cc2N1)OCCO3 (centres undefined) | i | 1e-09 | 24% | i | 0.9%
CCOc1ccc2nc(N3CCC(C(=O)N4CCN(C(=O)c5ccco5)CC4)CC3)sc2c1 | x | x | -5% | x | 3.0%
COC(=O)c1c(C(=O)OC)c(C)n(Cc2ccco2)c1C | i | 1.9e-08 | u | i | 0.3%
Cc1nn(C)c(C)c1S(=O)(=O)N(CC(=O)NCc1cccs1)c1ccc(C(C)C)cc1 | x | x | 26% | x | -2.0%
CCOc1ccc(C(=O)N(C)C2CCS(=O)(=O)C2)cc1 (centres undefined) | i | 1.1e-08 | 6% | i | -0.5%
Cc1nn(CC(=O)N2CCOCC2)c(=O)c2ccccc12 | i | 1.1e-09 | x | i | x
O=C(NCC1CCCO1)C1c2ccccc2C(=O)N1C1CCCCCC1 (centres undefined) | i | 5.9e-09 | 5% | i | 1.1%
Cc1cnc(CNc2cc(-c3ccccc3Cl)ncn2)cn1 | i | 3.5e-09 | u | i | -0.6%
CCCSC1=C(C#N)C(c2ccc(OC)cc2)C2=C(CC(C)(C)CC2=O)N1 (centres undefined) | i | 2e-08 | x | i | x
CCOc1ccc(-n2cc(C(=O)Nc3cccc(C)n3)c3cc(OC)c(OC)cc3c2=O)cc1 | i | 1e-09 | 14% | i | 0.8%
COc1ccc(C(=O)Oc2c(C)occc2=O)cc1OC | i | 1.9e-08 | -1% | i | -1.2%
CCOC(=O)CCNC(C)C1COc2ccccc2O1 (centres undefined) | i | 1e-09 | -1% | i | -0.7%
O=S(=O)(c1ccccc1)N1CCC[C@@]2(CCN(Cc3ccccc3)C2)C1 | i | 2e-08 | u | i | -0.1%
COc1ccc(S(=O)(=O)Nc2cc(C(C)C)c(O)cc2C)cc1 | i | 4.9e-09 | 10% | i | -0.8%

Entries listed above marked active in AID923.
SMILES	A647 autofl	A488 autofl	AID923
CCN1CC=C2C(C#N)=C(N)C(C#N)(C#N)C(CCc3ccccc3)C2C1 (centres undefined)	1e-09	u	20µM*
